Screening results from PubChem BioAssay.
A1 inh: inhibitors of the anti-apoptotic protein A1, read as caspase activation; caspase activation, % (test concentration not listed); AID 2462; MEF A1-2A-BIM cells, Caspase-Glo 3/7 luminescence, 3 h; percent of clofoctol response, vehicle zero; hit rate 0.066% among 330,000;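 active = over half of replicate activation scores above 10%, or exactly half above 10 with the replicate mean above 10; inconclusive = replicate mean below 10 yet half the replicates above 10; inactive = over half of replicates below 10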;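 also: wells of about 30 µL received 50 nL stock; many hits fall short of the cut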
Calb FLC: affects C. albicans growth with fluconazole; growth inhibition, % (test concentration not listed); hit rate 0.57% among 300,000; AID 1979; C. albicans CaCi-2 (fluconazole-resistant clinical isolate) + fluconazole, Alamar Blue growth, 48 h;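 active = most replicates above 75%; inconclusive = exactly half above 75%; inactive = most below 75%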;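 also: all wells also contain fluconazole at 8 µg/ml as a sub-toxic cotreatment; 0% = median of DMSO wells and 100% = median of geldanamycin control wells; wells of about 8 µL received 7.5 nL stock; the first replicate is given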
rRNA inh HTS: inhibitors of bacterial rRNA selective over humanized ribosomes; E. coli WT GFP vs humanized-ribosome RFP mutants, fluorescence, 24 h; hits give low values; DMSO median 0, no signal -100; GFP signal change (wild-type ribosome), % (no concentration beside the values); hit rate 1.6% among 350,000; AID 720706;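 active = significant combined selectivity score with lowered wild-type GFP, culture density cut under 30%, mutant RFP and density less affected; inactive = any of these conditions unmet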; also: one replicate is shown; some compounds called inactive have numbers as strong as hits
AF4-AF9 inh: inhibitors of human MLL-AF4/AF9 interaction; inhibition, % at 10 µM; P42568; AlphaScreen, biotin-AF4 peptide binding to FLAG-AF9; hit rate 0.47% among 350,000;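 active = every replicate reaching a set inhibition limit, whatever the replicate mean, cut at about 25% in these data; inconclusive = mean inhibition reaches that limit but some replicates miss it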;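 also: 0% = plate neutral control median and 100% = total signal loss; the record names both 10 and 1 µM as test concentration; the first replicate is given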
Target sequence (P42568 whole entry, looked up): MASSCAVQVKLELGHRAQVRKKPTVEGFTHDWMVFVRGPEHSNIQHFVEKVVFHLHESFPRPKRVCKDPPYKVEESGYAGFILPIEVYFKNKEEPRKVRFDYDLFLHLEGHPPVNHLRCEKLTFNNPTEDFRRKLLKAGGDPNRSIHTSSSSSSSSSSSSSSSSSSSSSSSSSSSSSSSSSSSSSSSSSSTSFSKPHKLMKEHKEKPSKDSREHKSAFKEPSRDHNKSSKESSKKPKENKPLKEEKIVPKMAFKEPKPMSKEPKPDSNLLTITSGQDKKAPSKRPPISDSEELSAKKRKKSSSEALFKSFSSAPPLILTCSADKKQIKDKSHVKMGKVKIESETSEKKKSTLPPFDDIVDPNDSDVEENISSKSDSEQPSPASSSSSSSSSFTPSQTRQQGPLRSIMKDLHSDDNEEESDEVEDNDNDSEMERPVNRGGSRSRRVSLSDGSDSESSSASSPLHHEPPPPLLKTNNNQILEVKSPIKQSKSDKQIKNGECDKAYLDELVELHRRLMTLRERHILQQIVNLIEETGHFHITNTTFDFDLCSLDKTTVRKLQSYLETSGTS
Vif A3G: HIV-1 Vif–A3G interaction blockers – biochemical, TR-FRET, GST-Vif 1-94, biotin-A3G peptide, dose response retest, primary screen (AID 1117319); hit rate 0.57% among 260,000; inhibition, %; hits with a dose series show IC50 in µM; TR-FRET GST-Vif / biotin-A3G peptide binding; higher % means a stronger effect; test concentration not given here; strong numbers were not always called active;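 active = above the screen mean plus three standard deviations and confirmed in dose response; inconclusive = results disagree or hit not tested in dose response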;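 also: Vif residues 1-94 fused to GST binding biotinylated APOBEC3G peptide 110-148; 0% = full assay without inhibitor and 100% = GST in place of GST-Vif; retest series ran down from 100 µM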
Beta cell apopt: beta cell apoptosis inhibition | hit rate 0.8% among 300,000 | INS-1E cytokine-induced death, ATP luminescence, 48 h; percent of positive-control rescue, neutral wells zero | protection from apoptosis, % (concentration not given with the values);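 active = all replicates at 75% or more, or half of them and the mean; inconclusive = half reach 75% but not the mean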;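 also: 0% = cytokine-treated negative control wells and 100% = positive control rescue; higher means more ATP so stronger rescue from cytokine killing; wells of about 40 µL received 100 nL stock; the first replicate is given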
T cruzi inh: T. cruzi replication inhibition; T. cruzi beta-gal in NIH3T3, luminescence, 90 h; AID 1885; inhibition, % (concentration not given with the values); hit rate 1.4% among 300,000;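 active = mean inhibition across valid replicates above about 55%, limit read from the data; inconclusive = mean below that limit but half or more replicates reach it; inactive = mean below it, under half of replicates reach it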;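 also: signal also drops with host cell toxicity which is not excluded here; 0% = plate median of DMSO wells and 100% = zero luminescence signal; higher percent means less beta-gal luminescence so fewer parasites; stock transfer was 50 nL into about 50 µL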
RanGTP-Impb inh: inhibitors of RanGTP-importin-beta interaction, primary screen, biochemical, FRET, CFP-Ran, YFP-importin-beta, homogeneous. cell-free CFP-Ran/YFP-importin-beta FRET ratio. inhibition, % (no concentration beside the values). hit rate 1.1% among 300,000. AID 2216;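 active = most replicates above 15%; inconclusive = exactly half above 15%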;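 also: 0% = DMSO wells and 100% = Ran loaded with GDP instead of GTP; wells of about 40 µL received 100 nL stock; the first replicate is given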
rRNA inh HTS OD600: recorded beside rRNA inh HTS, whose call it bears; OD600 change, %; measured here: OD600 growth;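 optical density of the mix in the first replicate; 0 = DMSO median and -100 = no signal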
rRNA inh HTS RFP: recorded beside rRNA inh HTS, whose call it bears; RFP signal change, %; measured here: RFP humanized mutant strains;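 first replicate; 0 = DMSO median and -100 = no signal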
* = called active by the depositor. The list is partial; the hit share may differ from the screen's.

For Cc1ccc(NC(=O)[C@@H]2CCCN2S(=O)(=O)c2ccccc2C(F)(F)F)cc1S(=O)(=O)N1CCOCC1 the results were A1 inh 0.5, Calb FLC 20, Vif A3G 6%, Beta cell apopt -4, T cruzi inh -4 and RanGTP-Impb inh -2.2.
For O=C(Nc1cccc(S(=O)(=O)N2CCCCCC2)c1)c1ccc(=O)[nH]c1 the results were A1 inh 0.5, rRNA inh HTS 3, AF4-AF9 inh -1.2, Vif A3G -6%, Beta cell apopt -2, rRNA inh HTS OD600 -1 and rRNA inh HTS RFP 4.0.
Screening Cc1ccc(NC(=O)NC2CCN(CC(=O)Nc3nccs3)CC2)cc1 returned A1 inh 0.4, Calb FLC -11, Vif A3G -2%, Beta cell apopt -4, T cruzi inh -11 and RanGTP-Impb inh 1.0.
Screening COc1ccc(NC(=S)NC(NC(=O)c2ccccc2Cl)C(Cl)(Cl)Cl)c([N+](=O)[O-])c1 (centres undefined) returned A1 inh 0.7, Calb FLC -11, rRNA inh HTS -5, AF4-AF9 inh -28, Vif A3G -2%, Beta cell apopt 9, T cruzi inh 12, RanGTP-Impb inh 1.1, rRNA inh HTS OD600 2 and rRNA inh HTS RFP 0.0.
CC(C)(C)c1ccc(C(=O)CC(=O)c2cc(Cl)ccc2O)cc1 was read as A1 inh 0.3, Calb FLC 106*, Vif A3G -3%, Beta cell apopt 28, T cruzi inh 23 and RanGTP-Impb inh 2.3.
For Cc1ccc(CCNC(=O)C23C[C@H]4C[C@@H](C2)CC(n2nnc(C)n2)(C4)C3)cc1 the results were A1 inh 0.2, Calb FLC 0, rRNA inh HTS -3, AF4-AF9 inh -0.6, Vif A3G -7%, Beta cell apopt -1, T cruzi inh 5, RanGTP-Impb inh -2.5, rRNA inh HTS OD600 -7 and rRNA inh HTS RFP 2.5.
COc1ccc(C2=NN(C(=O)c3ccncc3)C(c3ccccc3O)C2)cc1 (centres undefined) was read as A1 inh 0.3, Calb FLC 10, rRNA inh HTS -40, AF4-AF9 inh 6.3, Beta cell apopt 11, T cruzi inh 9, RanGTP-Impb inh 2.8, rRNA inh HTS OD600 -65 and rRNA inh HTS RFP 20.
Screening Cc1ccc(S(=O)(=O)N2CCOCC2)cc1NC(=O)COC(=O)c1cc[n+]([O-])cc1 returned A1 inh 1.2, rRNA inh HTS 3, AF4-AF9 inh -2.1, Beta cell apopt -21, rRNA inh HTS OD600 9 and rRNA inh HTS RFP -1.5.
For Cc1cccc(-c2noc(CN(C)C(=O)c3ccoc3C)n2)c1 the results were A1 inh -2.0, Calb FLC -14, rRNA inh HTS -3, AF4-AF9 inh -0.4, Beta cell apopt -4, T cruzi inh 1, RanGTP-Impb inh -1.1, rRNA inh HTS OD600 -3 and rRNA inh HTS RFP -2.3.
O=C(NC(=S)NCc1ccccc1)C1CCCCC1 was read as A1 inh 1.0, Calb FLC 11, Vif A3G 3%, Beta cell apopt -1, T cruzi inh 25 and RanGTP-Impb inh 2.2.
Screening COc1cc2c(cc1OC)C1Cc3ccc(OC)c(OC)c3CN1CC2 (centres undefined) returned A1 inh -0.1, Calb FLC -6, Vif A3G 32%, Beta cell apopt -15, T cruzi inh 51 and RanGTP-Impb inh -6.1.
`O=C(/C=C/c1ccc(Cl)cc1Cl)NCCN1CCOCC1` gave A1 inh 0.9, Calb FLC -4, Vif A3G 28%, Beta cell apopt -5, T cruzi inh -7 and RanGTP-Impb inh -0.6.
For CCCn1c(C)nc2cc(Cl)c(N3CCN(c4nc(-c5ccc(C)cc5)cs4)CC3)cc21 the results were A1 inh 2.3, Calb FLC 3, rRNA inh HTS 11, AF4-AF9 inh 0.6, Beta cell apopt 4, T cruzi inh 16, RanGTP-Impb inh 5.9, rRNA inh HTS OD600 -1 and rRNA inh HTS RFP 7.6.
Screening O=C(NCc1cccnc1)c1ccc(Cn2cc(C(F)(F)F)ccc2=O)cc1 returned A1 inh 0.5, Calb FLC -1, rRNA inh HTS 21, AF4-AF9 inh -0.5, Vif A3G -7%, Beta cell apopt -2, T cruzi inh -18, RanGTP-Impb inh -3.5, rRNA inh HTS OD600 12 and rRNA inh HTS RFP 1.8.
Cc1ccc2oc(=O)c3cc(C(=O)NCCCN4CCCC(C)C4)sc3c2c1 (centres undefined) was read as A1 inh -1.0, Calb FLC 4, rRNA inh HTS -11, AF4-AF9 inh 4.5, Vif A3G 0%, Beta cell apopt 7, T cruzi inh 21, RanGTP-Impb inh 0.2, rRNA inh HTS OD600 -11 and rRNA inh HTS RFP 1.3.
`Cc1nnc(NC(=O)c2ccccc2Oc2ccccc2)s1` gave A1 inh 0.6, Calb FLC 1, rRNA inh HTS 1, AF4-AF9 inh -3.6, Vif A3G -12%, Beta cell apopt 1, T cruzi inh -2, RanGTP-Impb inh 1.6, rRNA inh HTS OD600 -9 and rRNA inh HTS RFP -0.9.
Screening Cc1cccc(C)c1NC(=S)Nc1ccccc1C(=O)NCc1ccco1 returned A1 inh 3.3, Calb FLC -8, Vif A3G -8%, Beta cell apopt -1, T cruzi inh 19 and RanGTP-Impb inh 2.3.
Screening O=c1c(Cl)nc2cc(Cl)ccc2n1CCNc1ncc(C(F)(F)F)cc1Cl returned A1 inh -0.6, Calb FLC -1, Vif A3G 6%, Beta cell apopt 2, T cruzi inh 17 and RanGTP-Impb inh -0.6.
`COc1ccccc1CNC(=O)c1cc(S(=O)(=O)N2CCCC2)cn1C` gave Calb FLC -9, rRNA inh HTS -6, AF4-AF9 inh 10, Beta cell apopt -2, T cruzi inh -5, RanGTP-Impb inh inconclusive, rRNA inh HTS OD600 -5 and rRNA inh HTS RFP -5.1.
For CCCOc1ccc(C2C(C(=O)c3ccc(C)o3)=C(O)C(=O)N2Cc2ccco2)cc1OCC (centres undefined) the results were A1 inh 0.8, Calb FLC 21, rRNA inh HTS 1, AF4-AF9 inh 1.0, Beta cell apopt -4, T cruzi inh -5, RanGTP-Impb inh 2.4, rRNA inh HTS OD600 13 and rRNA inh HTS RFP -0.9.
Screening Cc1ccccc1OCC(=O)N/N=C/c1cccc2cccnc12 returned A1 inh -0.4, Calb FLC 4, rRNA inh HTS -6, AF4-AF9 inh 1.9, Beta cell apopt -7, T cruzi inh 0, RanGTP-Impb inh 3.8, rRNA inh HTS OD600 -7 and rRNA inh HTS RFP 2.9.
`Cn1c(SCC(=O)NCC2CCCO2)nc2c([nH]c3ccccc32)c1=O` (centres undefined) gave A1 inh -0.5, Calb FLC 0, Vif A3G 0%, Beta cell apopt 0, T cruzi inh -6 and RanGTP-Impb inh inconclusive.
Screening COc1ccc(C(=O)NCC2(c3ccccc3)CCOCC2)cc1 returned A1 inh -0.6, Calb FLC -1, rRNA inh HTS 6, AF4-AF9 inh -0.9, Vif A3G 4%, T cruzi inh 0, RanGTP-Impb inh inconclusive, rRNA inh HTS OD600 3 and rRNA inh HTS RFP 1.7.
`CCOc1ccccc1NC(=O)c1cc(=O)[nH]c2ccc(S(=O)(=O)N3CCOCC3)cc12` gave A1 inh 1.9, rRNA inh HTS 7, AF4-AF9 inh -2.3, Beta cell apopt -3, rRNA inh HTS OD600 0 and rRNA inh HTS RFP -1.9.
Screening COc1ccc(N2CCN(CCNC(=O)Nc3cccc(C)c3C)CC2)cc1 returned A1 inh -0.4, Calb FLC 8, rRNA inh HTS 14, AF4-AF9 inh 3.0, Vif A3G 0%, Beta cell apopt -11, T cruzi inh 1, RanGTP-Impb inh 2.2, rRNA inh HTS OD600 12 and rRNA inh HTS RFP 1.8.
`Cc1ccc(S(=O)(=O)Nc2ccncc2)c(C)c1` gave A1 inh 0.5, Calb FLC -6, rRNA inh HTS 4, AF4-AF9 inh -2.6, Vif A3G -2%, Beta cell apopt -2, T cruzi inh -6, RanGTP-Impb inh 1.0, rRNA inh HTS OD600 1 and rRNA inh HTS RFP -1.6.
OCc1ccc(-c2ccccc2)c(-c2ccccc2)c1 was read as A1 inh 0.2, Calb FLC -5, rRNA inh HTS -56, AF4-AF9 inh -2.3, T cruzi inh -13, RanGTP-Impb inh 3.4, rRNA inh HTS OD600 -82 and rRNA inh HTS RFP -16.
Cn1c(SCC(=O)Nc2cccnc2Cl)nnc1-c1ccco1 was read as A1 inh -1.7, rRNA inh HTS 8, AF4-AF9 inh -2.3, Vif A3G 2%, Beta cell apopt -4, rRNA inh HTS OD600 16 and rRNA inh HTS RFP 5.0.
For Cc1cc2oc(=O)cc(CSc3nc(N)cc(N)n3)c2cc1C(C)C the results were A1 inh 0.3, Calb FLC 14, Vif A3G -2%, Beta cell apopt -4, T cruzi inh -8 and RanGTP-Impb inh inconclusive.
COc1cc(C2(c3ccc(O)c(OC)c3)C(=O)N(C)c3ccc(C)cc32)ccc1O was read as A1 inh 0.5, Calb FLC 2, rRNA inh HTS -15, AF4-AF9 inh -13, T cruzi inh 19, RanGTP-Impb inh -0.2, rRNA inh HTS OD600 -11 and rRNA inh HTS RFP 1.3.
For CC(C)n1ncc2c(C(=O)O)cc(C3CC3)nc21 the results were A1 inh 0.2, Calb FLC 1, rRNA inh HTS -5, AF4-AF9 inh -0.1, Vif A3G -6%, Beta cell apopt -6, T cruzi inh -6, RanGTP-Impb inh -4.3, rRNA inh HTS OD600 -1 and rRNA inh HTS RFP -1.8.
Screening COCc1c(C(=O)N2CCN(Cc3nc4ccccc4s3)CC2)oc2ccccc12 returned A1 inh inconclusive, rRNA inh HTS -14, AF4-AF9 inh -0.9, Vif A3G 5%, Beta cell apopt 0, rRNA inh HTS OD600 -20 and rRNA inh HTS RFP 3.6.
For O=C(NCCc1ccc(Cl)cc1)C1CCN(c2ncccn2)CC1 the results were A1 inh 2.7, Calb FLC -27, rRNA inh HTS 14, AF4-AF9 inh -0.7, Vif A3G 11%, Beta cell apopt 1, T cruzi inh 8, RanGTP-Impb inh 4.6, rRNA inh HTS OD600 12 and rRNA inh HTS RFP 0.6.
Screening Cc1ccc(S(=O)(=O)NCCCCCC(=O)Nc2c(C)n(C)n(-c3ccccc3)c2=O)cc1 returned A1 inh 0.7, Calb FLC 9, rRNA inh HTS 2, AF4-AF9 inh -14, Beta cell apopt -12, T cruzi inh -10, RanGTP-Impb inh -2.7, rRNA inh HTS OD600 6 and rRNA inh HTS RFP -1.5.
O=C(CSc1nnc2ccc(-c3ccccn3)nn12)Nc1ccc(F)cc1F was read as A1 inh -0.4, Calb FLC 0, rRNA inh HTS 0, AF4-AF9 inh -0.8, Vif A3G -2%, Beta cell apopt -6, T cruzi inh -2, RanGTP-Impb inh -0.1, rRNA inh HTS OD600 6 and rRNA inh HTS RFP -0.8.
CCOC(=S)SCC(=O)Nc1ncc(C)s1 was read as A1 inh 0.4, Calb FLC 9, rRNA inh HTS 11, AF4-AF9 inh 7.3, Beta cell apopt -6, T cruzi inh -49, RanGTP-Impb inh 6.5, rRNA inh HTS OD600 4 and rRNA inh HTS RFP 12.
`COc1ccc(NCc2nnc(SCC(=O)Nc3ccccc3OC)o2)cc1` gave A1 inh -0.1, Calb FLC -10, Vif A3G -6%, Beta cell apopt -2, T cruzi inh 12 and RanGTP-Impb inh 2.1.
`CCOC(=O)c1cnc(-n2nc(C)cc2C)nc1NNc1nc(C)cc(C)n1` gave A1 inh -0.3, Calb FLC 4, rRNA inh HTS -8, AF4-AF9 inh -0.5, Vif A3G 15%, Beta cell apopt 3, T cruzi inh -12, RanGTP-Impb inh -3.2, rRNA inh HTS OD600 -7 and rRNA inh HTS RFP 1.9.
